Bioassay records: PubChem, several laboratories
RanGTP-Imp inh – inhibitors of RanGTP-importin-beta interaction, primary screen, biochemical, FRET, CFP-Ran, YFP-importin-beta, homogeneous; cell-free CFP-Ran/YFP-importin-beta FRET ratio; inhibition, % (no concentration beside the values); 300,000 tested, 1.1% active; AID 2216;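 active = most replicates above 15%; inconclusive = exactly half above 15%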;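 also: 0% = DMSO wells and 100% = Ran loaded with GDP instead of GTP; wells of about 40 µL received 100 nL stock; the first replicate is given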
Vif A3G – inhibitors of Vif binding to APOBEC3G peptide, primary screen, biochemical, TR-FRET, GST-Vif 1-94, biotin-A3G peptide, dose response retest (AID 1117319); TR-FRET GST-Vif / biotin-A3G peptide binding; higher % means a stronger effect; test concentration not given here; strong numbers were not always called active; inhibition, %, or IC50 in µM where a hit was titrated; 260,000 tested, 0.57% active;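 active = above the screen mean plus three standard deviations and confirmed in dose response; inconclusive = results disagree or hit not tested in dose response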;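 also: Vif residues 1-94 fused to GST binding biotinylated APOBEC3G peptide 110-148; 0% = full assay without inhibitor and 100% = GST in place of GST-Vif; retest series ran down from 100 µM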
UCH37 inh – inhibitors of human deubiquitinating enzyme UCH37. Q9Y5K5. purified proteasome/UCH37, Ub-AMC cleavage fluorescence. inhibition, % (no concentration beside the values). 330,000 tested, 0.33% active. AID 588478;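 active = mean of two replicates above 20%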;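 also: 0% = compound-free wells with enzyme and 100% = wells lacking proteasome; stock transfer was 100 nL into about 20 µL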
Target sequence (Q9Y5K5 whole entry, looked up): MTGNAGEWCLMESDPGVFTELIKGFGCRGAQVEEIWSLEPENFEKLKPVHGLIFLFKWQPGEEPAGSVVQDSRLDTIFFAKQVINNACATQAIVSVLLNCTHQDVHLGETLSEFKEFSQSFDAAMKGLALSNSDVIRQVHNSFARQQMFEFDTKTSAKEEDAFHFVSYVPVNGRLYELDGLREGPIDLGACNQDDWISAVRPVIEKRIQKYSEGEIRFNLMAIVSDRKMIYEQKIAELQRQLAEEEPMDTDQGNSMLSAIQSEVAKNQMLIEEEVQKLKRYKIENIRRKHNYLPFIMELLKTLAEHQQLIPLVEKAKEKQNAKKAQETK
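Material: human UCH37 enzyme supplied as purified proteasome complex. Measure: % inhibition of Ub-AMC cleavage fluorescence. Medium: pH 7.4 Tris-HCl (50 mM) with ovalbumin, ATP-MgCl2, DTT. Times: 30 min preincubation with enzyme, 25 min cleavage at room temperature. Detection: AMC fluorescence intensity at 355/460 nm.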
AF4-AF9 inh – MLL-AF4/AF9 protein interaction inhibition; P42568; AlphaScreen, biotin-AF4 peptide binding to FLAG-AF9; inhibition, % at 10 µM; 350,000 tested, 0.47% active; AID 651704;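 active = every replicate reaching a set inhibition limit, whatever the replicate mean, cut at about 25% in these data; inconclusive = mean inhibition reaches that limit but some replicates miss it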;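 also: 0% = plate neutral control median and 100% = total signal loss; the record names both 10 and 1 µM as test concentration; the first replicate is given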
FGF22 binding – FGF22 (human) thermal shift binding; recombinant FGF22 thermal shift, SYPRO orange fluorescence; percent of sucrose octasulfate shift, DMSO zero; calls only at 9.99 µM; 340,000 tested, 1.5% active; AID 651658;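 active = melting point raised past a set limit in the mean and every replicate; inconclusive = no clear call; three in four hits are not shown here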
Target sequence (Q9HCT0 whole entry, looked up): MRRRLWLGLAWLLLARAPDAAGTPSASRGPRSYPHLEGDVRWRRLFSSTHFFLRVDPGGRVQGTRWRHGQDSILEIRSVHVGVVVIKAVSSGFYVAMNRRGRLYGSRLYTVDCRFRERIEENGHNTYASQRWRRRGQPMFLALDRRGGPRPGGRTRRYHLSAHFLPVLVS
HNF4A DNA FP – change in binding of human HNF4 alpha to DNA; P41235; HNF4a-FITC DNA binding, fluorescence polarization, 1 h; activity change, % at 10 µM; 360,000 tested, 0.3% active; AID 1224865; in the data active = activity change above about 30%, passing the limit was not always enough;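 also: controls were the assay level and a saturating level of protein; the project sought stronger binding though the title names inhibitors; some compounds called inactive have numbers as strong as hits; positive values seem to mean higher polarization but the record does not say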
Target sequence (P41235 whole entry, looked up): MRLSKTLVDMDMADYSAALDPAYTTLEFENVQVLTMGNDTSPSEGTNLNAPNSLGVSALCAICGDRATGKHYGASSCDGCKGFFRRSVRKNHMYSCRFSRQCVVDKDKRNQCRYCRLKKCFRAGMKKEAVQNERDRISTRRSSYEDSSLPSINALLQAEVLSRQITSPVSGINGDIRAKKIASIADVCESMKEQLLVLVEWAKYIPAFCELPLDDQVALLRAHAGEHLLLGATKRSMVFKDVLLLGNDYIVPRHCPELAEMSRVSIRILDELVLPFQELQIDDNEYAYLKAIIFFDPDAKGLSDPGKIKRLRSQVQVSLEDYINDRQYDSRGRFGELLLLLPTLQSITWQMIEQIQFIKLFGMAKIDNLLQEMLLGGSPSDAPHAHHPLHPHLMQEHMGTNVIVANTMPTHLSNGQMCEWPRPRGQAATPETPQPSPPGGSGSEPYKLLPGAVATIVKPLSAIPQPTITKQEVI
E coli growth – inhibitors of Escherichia coli growth; OD600 absorbance (test concentration not listed); 330,000 tested, 0.21% active; AID 1053175; OD600, 23 h; hits give low values;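 active = OD600 absorbance below the run mean of sample wells minus 3.6 SD, in any replicate, cut at about 0.56 in these data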;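 also: stock transfer was 300 nL into about 60 µL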
* = called active by the depositor; i = inactive; ? = inconclusive; nt = no result given; & = joins results of further samples. The list is partial; count on the stated rates, not on these rows.

SMILES	RanGTP-Imp inh	Vif A3G	UCH37 inh	AF4-AF9 inh	FGF22 binding	HNF4A DNA FP	E coli growth
Nc1nc(NCC(=O)O)nc(N2CCCCCC2)c1[N+](=O)[O-]	-2.2	6.6%	8.9	-1.1	i	-9.3	0.662
CCc1nnc(NC(=O)CCC(=O)N2CCN(C3CCCCC3)CC2)s1	0.5	-2.2%	0.7	-3.1	i	1.7	0.709
C=CCNC(=S)Nc1cc(S(=O)(=O)N2CCOCC2)ccc1-n1cncn1	-1.2	nt	-1.1	-18.4	i	-2.0	0.701
Cc1[nH]c2ccccc2c1C(=O)CSc1nc2ccccc2c(=O)n1CCCN1CCOCC1	-0.8	1.8%	4.9	nt	nt	3.4	0.668
COc1ccccc1NC(=O)CCC(=O)Nc1ccccc1OC	1.8	-6.1%	0.9	nt	nt	2.8	0.675
C=CCOCCN(CCOCC=C)C1=NS(=O)(=O)c2ccccc21	7.2	1.3%	3.4	-2.3	i	1.8	0.678
CCCCCc1nc2c(c(=O)c3ccccc3n2C)c(=O)n1Cc1ccc(OC)cc1	2.0	-129.9%	3.8	1.2	i	7.5	0.678
O=C(Nc1ccc2c(c1)Cc1ccccc1-2)c1ccccc1F	0.3	nt	-24.0	0.0	i	3.7	0.736
COCCn1c(N2CCCC2)nc2c1c(=O)[nH]c(=O)n2C	1.4	4.4%	3.2	1.9	i	0.7	0.63
Cc1ccc(NS(=O)(=O)c2cccc(C(=O)NC3CCN(Cc4ccccc4)CC3)c2)cc1	nt	nt	2.1	8.6	i	0.7	0.685
CCC(=O)Nc1cc(C)c(NC(=O)c2ccco2)cn1	-2.9	-2.2%	0.0	nt	nt	4.2	0.696
CC(C)CN1C(=O)c2ccccc2C1c1nnnn1-c1ccc2c(c1)OCCO2 (stereo not given)	nt	nt	nt	-2.4	i	0.6	nt
Cc1ccc(SCc2c(C#N)c3ccccc3n2C)cc1	-0.9	-3.3%	0.9	nt	nt	2.5	0.751
Cc1ccc([N+](=O)[O-])c(OCCN2CCc3ccccc3C2)c1	-5.4	nt	3.1	11.7	i	6.4	0.629
CN1CCC(N(C)S(=O)(=O)c2ccc(NC(=O)COc3ccc(Cl)cc3)cc2)CC1	nt	nt	5.1	4.7	i	0.2	0.654
CCOC(=O)C1Cn2c(nc3c(c2=O)C(C)(CC)Cc2ccccc2-3)S1 (stereo not given)	0.1	-14.8%	-17.3	nt	nt	-1.8	0.703
CC(C)(C)C1CCC(CN2C(Nc3ccccc3)=NC[C@@H]2Cc2ccccc2)CC1 (stereo not given in full)	nt	nt	nt	14.4	i	2.9	nt
C=CC[N+](C)(C)CC(=O)OCc1ccccc1	3.2	nt	1.9	0.5	i	2.0	0.709
Cc1ccc(C2C(C(=O)c3ccco3)=C(O)C(=O)N2c2ncccn2)cc1 (stereo not given)	1.6	-6.4%	7.7	-5.8	i	8.9	0.704
Nc1cc([N+](=O)[O-])cc2oc(-c3ccccc3)cc12	-0.1	nt	1.9	6.4	i	12.3	0.69
NC(=O)CC(NC(=O)Cc1ccc(Cl)cc1)c1ccc(NC2CCCCCC2)c([N+](=O)[O-])c1 (stereo not given)	-6.5	nt	0.9	nt	nt	-0.7	0.717
CC1(C)CC(=O)C(N=Nc2c(F)cccc2F)=C(O)C1	-3.2	3.4%	11.5	-1.4	nt	-0.9	0.662
COc1ccc(CCNC(=O)c2ccco2)cc1OC	?	5.7%	3.5	-1.3	i	-0.1	0.671
CC(C)c1cc(=O)n2[nH]c(SCc3ccc(Cl)cc3)nc2n1	3.4	-0.3%	-1.2	-4.4	i	-1.7	0.635
CCOC(=O)c1[nH]c(C)c(C(=O)NCC2CCCO2)c1C (stereo not given)	-4.5	21.4%	0.3	nt	nt	-3.5	0.693
CCOC(=O)c1ccc(NC(=O)CC2C(=O)OCCN2CC)cc1 (stereo not given)	?	-1.4%	5.3	-0.8	i	6.6	0.698
CC1CCN(C(=O)c2ccc(CNS(=O)(=O)c3ccc(C(C)(C)C)cc3)cc2)CC1	nt	nt	1.9	0.6	i	-0.9	0.686
CCOc1ccc(-c2nc(C#N)c(NCc3ccco3)o2)cc1	-2.1	1.6%	-6.1	6.0	i	2.2	0.715
Cc1ccnc(NC(=O)CNC(=O)c2ccccc2)c1	5.1	-2.6%	6.7	-0.9	nt	3.9	0.689
NC(Cc1ccc(C(F)(F)F)cc1)c1csc(Nc2ccc(C(=O)c3ccccc3)cc2)n1 (stereo not given)	nt	nt	nt	5.2	i	-2.5	nt
Cc1cccc(C(=O)NC(=O)Nc2c(C)cc(C)nc2C)c1	2.5	2.8%	1.4	-4.1	i	0.1	0.706
COc1cc(NC(=O)c2cc(-c3ccccc3)on2)cc(OC)c1OC	5.6	nt	-1.1	0.2	i	0.0	0.624
CSc1nc2ccccc2c(=O)n1Cc1ccc(F)cc1	0.8	-27.9%	3.7	-1.7	i	-0.6	0.723
Cc1cccc(C)c1NC(=S)N1CCC(c2ccccc2)C1 (stereo not given)	?	-6.6%	1.4	4.7	nt	-0.9	0.69
Cc1ccc(C(=O)COC(=O)CCN2C(=O)C3C4C=CC(C5CC45)C3C2=O)cc1 (stereo not given)	3.6	nt	-1.4	0.7	i	1.9	0.647
Cc1ccc(S(=O)(=O)C(C)C(=O)c2ccc3c(c2)OCCO3)cc1 (stereo not given)	-3.6	3.5%	2.1	nt	nt	4.0	0.687
Cc1cccc(C2=N/C(=C\c3cccnc3)C(=O)O2)c1	6.1	0.3%	-1.3	1.6	nt	-3.8	0.704
CCn1cc(C(=O)NCc2ccccc2OC)c(=O)c2ccc(C)nc21	2.3	nt	-1.8	nt	nt	nt	0.747
CCOC(=O)Cn1nnnc1CN(Cc1ccc(OC)cc1)Cc1cc2cc(C)ccc2[nH]c1=O	?	?	0.5	nt	nt	-1.2	0.702
CC(=O)c1ccccc1N(C(=O)c1ccco1)C(C(=O)NC1CCCC1)c1ccc(N2CCOCC2)cc1 (stereo not given)	1.4	0.6%	5.4	-24.1	i	2.7	0.676

Just FGF22 binding and E coli growth (2 entries from above):
Structure	FGF22 binding	E coli growth
Cc1ccc(C(=O)COC(=O)CCN2C(=O)C3C4C=CC(C5CC45)C3C2=O)cc1 (stereo not given)	i	0.647
CSc1nc2ccccc2c(=O)n1Cc1ccc(F)cc1	i	0.723

(next part)
SMILES	RanGTP-Imp inh	Vif A3G	UCH37 inh	AF4-AF9 inh	FGF22 binding	HNF4A DNA FP	E coli growth
Cc1nnsc1SCCNC(=O)c1ccc(F)cc1	-8.5	-2.0%	1.1	nt	nt	-3.0	0.724
Cc1ccc(CN(Cc2ccccn2)C(=O)Nc2ccc(C)c(C)c2)cc1	-1.1	-1.7%	0.9	-1.4	i	-3.2	0.658
C[C@H](CO)N1C[C@H](C)[C@@H](CN(C)S(=O)(=O)c2ccc(C#N)cc2)OCc2cn(nn2)CCCC1=O	nt	-4.4%	nt	1.8&-0.1	i	1.9	nt
CN(CC(=O)Nc1ccc(N2CCOCC2)cc1)C(=O)CCCOc1ccc(Cl)cc1Cl	4.3	-3.8%	3.3	2.0	i	2.4	0.669
CC(C)[C@H](NC(=O)N1CC(=O)Nc2ccccc21)C(=O)N[C@@H](C(=O)O)c1ccccc1	1.0	nt	1.9	-0.1	i	3.8	0.672
COc1ccc(S(=O)(=O)Nc2ccccc2C(=O)NCc2ccco2)cc1Br	8.8	?	-1.2	nt	nt	1.1	0.716
O=c1[nH]c(NC2CCCCC2)c([N+](=O)[O-])c(=O)[nH]1	3.9	-12.0%	8.3	nt	nt	3.2	0.629
COc1ccccc1/C=C/C(=O)NC(=S)N1CCOCC1	-1.7	nt	nt	-0.3	i	0.2	nt
COC(=O)c1cc(COC(=O)COc2ccc(C)c(C)c2)oc1C	11.0	nt	3.1	1.5	i	2.1	0.683
Oc1ccc2ccccc2c1CN1CC2CCC(CC2)C1	nt	-7.9%	-18.7	0.6	i	1.9	0.664
O=C(COC(=O)C1CC1)Nc1cccc(Cl)c1	nt	-2.6%	nt	-0.8	i	-1.9	nt
Cc1ccc(S(=O)(=O)NC(CC(=O)O)c2ccco2)cc1 (stereo not given)	1.1	4.7%	-1.0	-14.1	i	-4.4	0.686
CCN(c1ccccc1)S(=O)(=O)c1cc(C(=O)OC2CCOC2=O)ccc1C (stereo not given)	nt	15.3%	2.6	-0.7	i	-1.0	0.655
O=C1CC(=O)N(c2cccc(F)c2)N1	?	14.5%	nt	-1.5	i	-2.7	nt
CN(NS(=O)(=O)c1ccc(Cl)cc1)c1ncc(C(F)(F)F)cc1Cl	-1.0	6.0%	0.6	-1.2	i	5.9	0.639
CN1CCN(C(=O)c2cc(COc3c(F)cccc3F)on2)CC1c1ccccc1 (stereo not given)	-1.5	3.5%	1.0	0.6	i	1.6	0.674
O=C(NC1CC2CCC1C2)c1ccc(CN2CCOCC2)cc1 (stereo not given)	2.6	4.7%	0.0	nt	nt	-0.3	0.727
COc1ccc(CC(=O)Nc2ccc(S(=O)(=O)Nc3ncccn3)cc2)cc1	0.8	7.0%	3.3	nt	nt	5.5	0.824
CC(NCC(O)COCc1ccc(Cl)cc1)c1ccccc1 (stereo not given)	0.5	nt	4.1	2.2	i	-1.2	0.668
O=C(O)Cc1csc2ccccc12	2.1	9.1%	3.5	nt	nt	-0.5	0.696
N=c1n(CC(=O)c2ccc(Br)s2)c2ccccc2n1Cc1ccccc1	5.5	-52.0%	5.1	8.5	i	2.9	0.59
COc1ccc(C(C(=O)NC(C)(C)C)N(Cc2ccc(F)cc2)C(=O)CCC(=O)Nc2cc(C)on2)cc1 (stereo not given)	0.9	nt	4.5	0.3	i	5.4	0.701
Cc1ccc(F)cc1NC(=O)COC(=O)C1CC2CCCC(C1)C2=O (stereo not given)	nt	0.2%	nt	-0.7	i	-2.7	nt
C=CCNC(=S)NNC(=O)c1ccc(=O)n(Cc2ccc(Cl)cc2Cl)c1	-0.4	-1.0%	4.3	0.2	i	4.6	0.681
Cc1cc(C)n(-c2ccc(NC(=O)C3CCN(Cc4ccc(C)o4)CC3)cc2)n1	?	nt	0.2	1.1	i	0.6	0.71
COC(=O)C1=C(C(=O)c2ccccc2)C(c2ccc(O)c(OC)c2)n2nnnc2N1 (stereo not given)	nt	-3.7%	2.4	nt	nt	-0.1	0.725
Cc1ccc(CN(C)C(=O)c2cc(Br)c(Br)s2)o1	2.8	nt	-0.2	0.4	i	-2.8	0.678
Cc1ccc(N2C(=O)NC(NC(=O)C(C)(C)C)(C(F)(F)F)C2=O)cc1 (stereo not given)	0.3	nt	3.1	nt	nt	5.8	0.69
Cc1ccc(S(=O)(=O)NCC(=O)N(CC(=O)NCC2CCCO2)c2cccc(F)c2)cc1 (stereo not given)	1.3	2.7%	0.8	0.4	i	3.1	0.712
C#CCOCCOCCOCCNc1nc(N2CCN(C(=O)[C@H]([C@@H](C)CC)n3cc(CCCCN)nn3)CC2)nc(N2CCN(C(=O)[C@H](C)n3cc(CCC(=O)O)nn3)CC2)n1	-4.4	1.4%	1.4	-0.1	i	-5.9	nt
O=C(Nc1nc(-c2cccs2)cs1)c1cccc(S(=O)(=O)N2CCCCC2)c1	-2.9	-4.3%	-6.9	nt	nt	1.3	0.771

Ordered by length of the SMILES (highest first): part of the list above.
SMILES	RanGTP-Imp inh	Vif A3G	UCH37 inh	AF4-AF9 inh	FGF22 binding	HNF4A DNA FP	E coli growth
C#CCOCCOCCOCCNc1nc(N2CCN(C(=O)[C@H]([C@@H](C)CC)n3cc(CCCCN)nn3)CC2)nc(N2CCN(C(=O)[C@H](C)n3cc(CCC(=O)O)nn3)CC2)n1	-4.4	1.4%	1.4	-0.1	i	-5.9	nt
Cc1cc(C)n(-c2ccc(NC(=O)C3CCN(Cc4ccc(C)o4)CC3)cc2)n1	?	nt	0.2	1.1	i	0.6	0.71
C=CCNC(=S)NNC(=O)c1ccc(=O)n(Cc2ccc(Cl)cc2Cl)c1	-0.4	-1.0%	4.3	0.2	i	4.6	0.681
